miR-21 reporter = miR-21 reporter, rising signal | HeLa miR-21 FLuc reporter, luciferase, 48 h | Potency, µM (titrated, usually from 38.3 µM), without a hit: at the highest dose reporter change, positive = more light | 340,000 tested, under 10 active; active = well fitted rising curve with a large enough effect; inconclusive = small, poorly fitted or top-dose-only effect; inactive = no such curve, though single readings can be large or run the other way;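 further: % of control where 0% means no effect; miR-21 action dims this reporter so a rising signal means less miR-21 action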
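HeLa miR-21-FLuc reporter line, endogenous miR-21; 2000 cells/well in DMEM/10% FBS; compound titration up to ~40uM final, 48 h, 37 degree Celsius; luciferase detection reagent, 15 min lysis, CCD luminescence.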
GLA inh pH 4.5 = inhibitors of human alpha-galactosidase A at pH 4.5 | P06280 | purified enzyme, 4-MU-alpha-Gal fluorescence, pH 4.5 | activity change, negative = inhibition, % at 105 µM | 230,000 tested, under 10 active | AID 1467; inconclusive = small, poorly fitted or top-dose-only inhibition, or a rising curve; inactive = flat fitted curve, though single readings scatter; no compound was filed as active;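 further: 0% = full activity with enzyme and -100% = basal without enzyme; dose as in the result columns while the protocol names 77 µM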
Target sequence (P06280 whole entry, looked up): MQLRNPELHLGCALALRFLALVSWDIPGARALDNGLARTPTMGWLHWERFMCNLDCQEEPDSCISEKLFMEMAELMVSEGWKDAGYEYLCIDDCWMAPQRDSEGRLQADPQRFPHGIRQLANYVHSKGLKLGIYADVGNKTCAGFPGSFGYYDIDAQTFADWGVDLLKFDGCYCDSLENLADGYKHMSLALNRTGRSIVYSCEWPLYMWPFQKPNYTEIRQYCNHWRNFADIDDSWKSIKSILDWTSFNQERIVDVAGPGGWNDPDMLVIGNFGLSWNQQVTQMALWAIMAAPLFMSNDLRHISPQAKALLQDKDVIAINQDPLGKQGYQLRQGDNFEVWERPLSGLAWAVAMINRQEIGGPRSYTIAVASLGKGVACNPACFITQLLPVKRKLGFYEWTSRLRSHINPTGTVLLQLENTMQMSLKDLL
Rango-impB inh = inhibitors of Rango-importin beta complex formation | Rango CFP/YFP FRET sensor + importin beta, 45 min | Potency, µM (top dose mostly 92.2 µM), for the others: top-dose inhibition of complex formation | hit rate 0.031% among 340,000 | AID 540263; active = rising FRET ratio curve, often small or poorly fitted; inconclusive = mostly compound fluorescence or quenching in the first reads; inactive = flat curves in all reads;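 further: potency means the concentration at half of the fitted maximal effect; 0% = DMSO wells and 100% = buffer wells lacking importin beta; nearly all actives have a fitted effect of over 15% in size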
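Inhibition scored from the CFP 486 nm/YFP 530 nm FRET ratio 45 min after adding 0.125 microM importin beta to 50 nM Rango biosensor preincubated 5 min with compound (room temperature, PBS with DTT, Tween-20, BSA). No-importin wells as positive control.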
Rango release inh = prevents RanGTP from dissociating the Rango-importin beta complex; O95149+P62826; Biochemical FRET Rango-importin beta, RanGTP-induced dissociation; Potency, µM (doses to about 46.1 µM), without a hit: at the highest dose activity change, negative = inhibition; hit rate 0.071% among 340,000; AID 540253; active means falling FRET ratio curve, often poorly fitted, with flat reads before Ran was added; inconclusive means other falling curves, or compound fluorescence or quenching; inactive means flat or rising ratio curve;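 further: potency means the concentration at half of the fitted maximal effect; % of control where 0% means no effect; nearly all actives have a fitted effect of over 45% in size; -100% = wells without RanGTP and RCC1; the record marks most hits as doubtful in a second field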
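Rango/importin beta premix (0.1/0.25 uM final), PBS + 1 mM DTT + 0.02% Tween-20 + 0.1% BSA; cpd 5 min RT; FRET pre-read; + RanGTP-RCC1 (0.6 uM Ran, 2 mM GTP, 0.2 uM RCC1); 45 min RT; FRET post-read, ex 430, em 486/530 nm.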
Numbers without * were called inactive; ? = inconclusive; . = no result given; & = joins results of further samples; [ ] = remark or other dose. This is a subset. The share of hits here may be higher or lower than overall.

| compound | miR-21 reporter | GLA inh pH 4.5 | Rango-impB inh | Rango release inh |
| --- | --- | --- | --- | --- |
| C/C(=N\NC(=O)Cc1c(Cl)cccc1Cl)c1cccnc1 | -5% | . | 4.5% | -3% |
| c1ccc2nc3c(ccc4ccccc43)cc2c1 | . | . | 3.0% | 11% |
| CCOc1ccccc1NC(=O)CSc1nnc(Cc2cccn2C)n1-c1ccc(F)cc1 | -2% | 6 | -6.1% | ? |
| O=C(Cn1cccc1C(=O)c1ccccc1)NCc1cccs1 | -16% | 3 | 4.9% | 4% |
| S=C(NCc1cccnc1)c1ccccc1 | -2% | . | -0.3% | 35% |
| CC1CN(S(=O)(=O)c2cccc(C(=O)NCc3ccccn3)c2)CC(C)O1 (stereo unspecified) | . | . | -3.6% | -9% |
| CCOC(=O)c1nnn(-c2nonc2N)c1CN(CC)c1ccccc1 | -18% | -5 | 1.4% | -6% |
| CCOC(=O)C1(CC)NC(c2ccco2)C2C(=O)N(CC)C(=O)C21 (stereo unspecified) | -7% | 0 | -1.0% | -10% |
| CN(C)CCCN1C(=O)C(=O)/C(=C(/O)c2ccncc2)C1c1cccc(Br)c1 (stereo unspecified) | -6% | -12 | 4.9% | 10% |
| COc1ccc(CC(=O)OCC(=O)Nc2ccc3[nH]c(=O)[nH]c3c2)cc1 | . | . | -3.7% | -29% |
| CCc1ccccc1NC(=O)c1ccc2nc(N3CCOCC3)sc2c1 | -12% | . | -0.1% | 8% |
| Brc1cccc(CN2CCCCCC2)c1 | -1% | . | 0.4% | 14% |
| C=CCN1CC(c2nc3ccccc3n2Cc2ccccc2)CC1=O (stereo unspecified) | -7% | -5 | -2.8% | 21% |
| CNCCc1ccccn1 | -3% | -1&5&3 | 0.2% | -5% |
| CCC(C)c1ccccc1N1CC(C(=O)Nc2ccc(S(=O)(=O)N3CCOCC3)cc2)CC1=O (stereo unspecified) | . | . | -4.6% | -7% |
| O=C(NCc1ccc(F)cc1)C1CCN(S(=O)(=O)c2ccc3c(c2)OCCCO3)CC1 | -8% | 5 | -0.6% | 22% |
| COC(=O)c1sccc1NC(=O)CC1C(=O)NCCN1C(=O)c1c(F)cccc1Cl (stereo unspecified) | -1% | 0 | -0.6% | 2% |
| CC(C)c1nccn1S(=O)(=O)c1cccc([N+](=O)[O-])c1 | -8% | 3 | 3.0% | -14% |
| CCOc1cc(/C=N/NC(=O)CSc2nncn2C)ccc1OC(=O)c1ccc(Cl)cc1 | 7% | -12 | 1.4% | -1% |
| COc1ccc(CC(C)Nc2cccc(SC)c2)cc1 (stereo unspecified) | -6% | . | 0.5% | -4% |
| O=C(COc1coc(CN2CCN(c3ccccc3)CC2)cc1=O)NC1CCCCC1 | . | . | 1.7% | 12% |
| Cc1cc(C)c2c(c1)cc(C)c1nnc(SCC(=O)Nc3ccc(S(=O)(=O)N4CCCCC4)cc3)n12 | -13% | -25 | 0.0% | 28% |
| O=C(Cc1cccs1)N[C@@H]1c2ccccc2CC[C@@H]1OCc1ccccc1 | . | . | 2.5% | 11% |
| CSc1ccc(CCCCCCOC(=O)C(C)(C)C)cc1 | . | . | 0.1% | 1% |
| O=C(Nc1cccc(Cl)c1)Nc1nccs1 | -24%&-33% | -4&-10 | 1.9% | 0% |
| COc1ccc2c(c1)OC[C@H]1[C@H]2N2C(=O)c3cc(Br)ccc3NC(=O)[C@@]2(C)[C@H]1c1ccccc1 | . | . | -0.5% | -4% |
| O=C(NCc1cccnc1)c1ccc(Cl)cc1[N+](=O)[O-] | -5% | 11 | -0.2% | -14% |
| CC(C)C(C)NC(=O)COn1nnc2ccc(S(=O)(=O)N3CCOCC3)cc21 (stereo unspecified) | . | . | -3.2% | 0% |
| COc1ccc(/C(C)=N/N=C(N)N)c(O)c1 | -12% | -1 | -0.3% | -9% |
| CCN(c1ccccc1)S(=O)(=O)c1cccc(C(=O)NCc2ccncc2)c1 | . | . | 1.5% | -4% |

Entries shown so far that have an aryl methoxy group (4):
| compound | miR-21 reporter | GLA inh pH 4.5 | Rango-impB inh | Rango release inh |
| --- | --- | --- | --- | --- |
| COc1ccc(CC(=O)OCC(=O)Nc2ccc3[nH]c(=O)[nH]c3c2)cc1 | . | . | -3.7% | -29% |
| COc1ccc(CC(C)Nc2cccc(SC)c2)cc1 (stereo unspecified) | -6% | . | 0.5% | -4% |
| COc1ccc2c(c1)OC[C@H]1[C@H]2N2C(=O)c3cc(Br)ccc3NC(=O)[C@@]2(C)[C@H]1c1ccccc1 | . | . | -0.5% | -4% |
| COc1ccc(/C(C)=N/N=C(N)N)c(O)c1 | -12% | -1 | -0.3% | -9% |

Grouped by structure, the entries above with a thiophene ring, fused or not (3)
| compound | miR-21 reporter | GLA inh pH 4.5 | Rango-impB inh | Rango release inh |
| --- | --- | --- | --- | --- |
| O=C(Cn1cccc1C(=O)c1ccccc1)NCc1cccs1 | -16% | 3 | 4.9% | 4% |
| COC(=O)c1sccc1NC(=O)CC1C(=O)NCCN1C(=O)c1c(F)cccc1Cl (stereo unspecified) | -1% | 0 | -0.6% | 2% |
| O=C(Cc1cccs1)N[C@@H]1c2ccccc2CC[C@@H]1OCc1ccccc1 | . | . | 2.5% | 11% |

Further records:
| compound | miR-21 reporter | GLA inh pH 4.5 | Rango-impB inh | Rango release inh |
| --- | --- | --- | --- | --- |
| COc1cccc(NC(=O)c2ccc(S(=O)(=O)NCc3cccnc3)cc2)c1 | 13% | . | -0.4% | 1% |
| CCOC(=O)c1ccc(NC(=O)c2cn(CCC#N)nc2-c2ccc3c(c2)OCCO3)cc1 | 3% | 1 | -1.9% | 2% |
| Cc1ccc2occ(/C=N/NC(=O)[C@@H](N)Cc3ccccc3)c(=O)c2c1 | 20% | -8 | ? | 0% |
| Cc1ccc(CS(=O)(=O)CCC(=O)NCCCN2CCCC2)cc1 | -2% | 6 | 4.4% | 1% |
| O=C(Cn1nc(C(F)(F)F)c2c1CCCC2)NC1CCCC1 | 2% | 1 | -1.1% | 1% |
| COC(=O)c1cccc(NC(=O)CN2CCC(NC(=O)c3cc(OC)c(OC)c(OC)c3)CC2)c1 | -1% | -3 | 7.2% | -12% |
| CCCCCCn1c(CN2CCN(CCO)CC2)nc2c1c(=O)n(C)c(=O)n2C | -3% | 2 | -0.2% | -7% |
| Cc1ccccc1NC(=S)N1CCCCCC1 | 0% | . | -0.7% | 14% |
| O=C(CSc1ncnc2ccccc12)NCC(=O)c1ccccc1 | -47% | 11 | 1.7% | 11% |
| Cc1ccc(NC(=O)c2cccc(NC(=O)CC3SC(N4CCCCC4)=NC3=O)c2)nc1 (stereo unspecified) | . | . | 0.0% | 8% |
| CCCOc1ccccc1OCC(=O)N1CCN(S(=O)(=O)c2ccc(Cl)cc2)CC1 | . | . | -0.3% | -16% |
| C=C1SC(=Nc2ccccc2Cl)N(C(=O)c2sc3ccccc3c2Cl)C12CCCCC2 | -21% | -5 | . | . |
| NC(=O)c1ccsc1NC(=O)C1CCCCC1 | -42% | -5 | -1.5% | 18% |
| O=C(NC1CCCCC1)Oc1cc2oc(=O)sc2cc1Br | -24% | -24 | 1.5% | 28% |
| C=CC(C)(O)CCCC(C)CCCC(C)CCCC(C)C (stereo unspecified) | . | -16 | -2.0% | 0% |
| CCOc1ccc(NC(=O)CN(C)C(=O)c2ccncc2)cc1OCC | -18% | . | -1.4% | 16% |
| Cc1ccc(Sc2nc(C)c([N+](=O)[O-])c(C)c2C#N)cc1 | -7% | -11 | 0.0% | 8% |
| CCCCn1c(N)c(N(CC(C)C)C(=O)CSc2ccc([N+](=O)[O-])cc2)c(=O)[nH]c1=O | . | . | 7.5% | 10% |
| CCn1c(NC(=O)Nc2ccccc2OC)nc2ccccc21 | -4% | 4 | -4.6% | 24% |
| Cc1cnc(C(=O)OCC(=O)N2c3ccccc3CC2C)cn1 (stereo unspecified) | 4% | -7 | 0.7% | -5% |
| CCc1cccc(CC)c1N(COC)C(=O)Cn1nnc2ccccc21 | -6% | 0 | 1.6% | 0% |
| Cc1ccc(NC(=O)CN(C)C(=O)c2ccc(COc3ccccc3)cc2)cc1 | . | . | -0.2% | 19% |
| Cc1ncc([N+](=O)[O-])n1Cc1cccc2ccccc12 | -18% | 12 | -0.8% | 1% |
| CCCCn1c(=O)[nH]c(=O)c2c1nc(-c1ccncc1)n2CCOC | -2% | 0 | 3.9% | 3% |
| Cc1ccsc1/C=N/Nc1nc(=O)[nH]nc1C | -30% | -7[21.1 µM] | 2.6% | -6% |
| O=C(Nc1ccccc1)N1CCCC1 | 0% | 3 | 1.9% | 2% |
| CCOc1ccc(S(=O)(=O)NCCC(=O)OC(C)C(=O)N2CCc3ccccc32)cc1 (stereo unspecified) | 17% | -3 | 4.4% | -6% |
| O=C(CN1C(=O)NC2(CCOc3ccccc32)C1=O)N1CCCCC1 (stereo unspecified) | . | . | -2.9% | 10% |
| COc1ccc(NC(=O)CSc2nccn2Cc2ccco2)cc1 | -38% | . | 0.4% | 12% |
| CCOC(=O)c1c[nH]c(=S)n(-c2ccccc2)c1=O | . | . | -2.4% | -3% |

Given with the structure last: part of the list above
miR-21 reporter | GLA inh pH 4.5 | Rango-impB inh | Rango release inh | mol
13% | . | -0.4% | 1% | COc1cccc(NC(=O)c2ccc(S(=O)(=O)NCc3cccnc3)cc2)c1
3% | 1 | -1.9% | 2% | CCOC(=O)c1ccc(NC(=O)c2cn(CCC#N)nc2-c2ccc3c(c2)OCCO3)cc1

(list continues)
| compound | miR-21 reporter | GLA inh pH 4.5 | Rango-impB inh | Rango release inh |
| --- | --- | --- | --- | --- |
| Cc1nc2ccccn2c1C(=O)NN=C1C2CC3CC(C2)CC1C3 | 0% | -2 | -1.8% | -5% |
| CCCCOc1ccc(C(=O)NCC(=O)NCc2ccncc2)cc1 | . | . | 4.7% | 26% |
| O=C(NC1CC1)C1CCCN1C(=O)NC1CCCCC1 (stereo unspecified) | 0% | 11 | -5.0% | 6% |
| Cc1ccc(S(=O)(=O)N2CCCOC2CNC(=O)C(=O)NCc2cccnc2)cc1 (stereo unspecified) | 2% | -5 | 0.4% | -14% |
| Cc1ccc(OCC(=O)Nc2nnc(S(=O)(=O)N3CCCCCC3)s2)cc1C | 0% | . | -2.6% | 3% |
| CC1(C)CC(=O)C2=C(C1)OC(N)=C(C#N)C21CCN(C(=O)OCc2ccccc2)CC1 | -7% | -4 | -1.8% | 0% |
| CC1CCN(C(=O)COC(=O)CCc2c[nH]c3ccccc23)CC1 | 1% | -3 | 0.5% | 1% |
| CCn1c2ccccc2c2cc(C3C(C#N)=C(C)NC(C)=C3C#N)ccc21 | -1% | 9 | ? | -15% |
| Cc1ccc(C23OC(=O)C(C)(C)C2OC(=O)C3(C)C)cc1 (stereo unspecified) | -4% | 5 | -0.3% | -4% |
| NC(=O)C1CCN(C(=O)/C=C/c2cccc(Br)c2)CC1 | -6% | 0 | 0.0% | 4% |
| Cc1cc(S(=O)(=O)N2CCCC2)ccc1OCC(=O)NC1CCCC1 | 5% | 5 | 0.1% | 5% |
| CS(=O)(=O)N(Cc1ccco1)CC(O)Cn1c2ccccc2c2ccccc21 (stereo unspecified) | 0% | -10 | 1.6% | -1% |
| CC(Oc1ccc2c(c1)oc(=O)c1ccccc12)C(=O)NCCCN1CCOCC1 (stereo unspecified) | -5% | . | -1.5% | 22% |
| CCOc1ccccc1N1CCN(S(=O)(=O)c2cccc3nsnc23)CC1 | -6% | 7 | 1.4% | -12% |
| Cc1nc2ccc(-n3ccc(=O)cc3)cc2s1 | -14% | -18 | -5.1% | -2% |
| Cc1ccc(S(=O)(=O)N(C)CCCC(=O)NCc2ccc3c(c2)OCO3)cc1 | -2% | 7 | -0.8% | -10% |
| O=C(CCCN1C(=O)/C(=C/c2cccs2)SC1=S)Nc1cccnc1 | -5% | 0 | 0.3% | -12% |
| CC(C)(C)n1nnnc1C(c1ccccc1F)N1CCN(C(=O)c2ccco2)CC1 (stereo unspecified) | -2% | . | -0.6% | 45% |
| COc1ccc(S(=O)(=O)N2CCOCC2)cc1NC(=O)c1ccc(S(=O)(=O)N2CCCCC2)cc1 | . | . | 4.1% | 7% |
| O=C(NCc1cc(C(F)(F)F)cc(C(F)(F)F)c1)C1CC(c2ccccc2C(F)(F)F)=NO1 (stereo unspecified) | . | . | 2.3% | 7% |

Source: PubChem
